Cruzain Triton: inhibitors of Trypanosoma cruzi cruzain with detergent; P25779; purified cruzain, Z-FR-AMC fluorescence, 0.01% Triton; Potency, µM, for the others: max response, negative = inhibition, most hits filed as inhibitors; 0.43% of 200,000 active;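 note: plate controls were neutral wells for no effect and buffer without enzyme for full effect; nearly all actives have a fitted effect of over 40% in size; top concentration of the series not given in the record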
Target sequence (P25779 123-467 limits assumed): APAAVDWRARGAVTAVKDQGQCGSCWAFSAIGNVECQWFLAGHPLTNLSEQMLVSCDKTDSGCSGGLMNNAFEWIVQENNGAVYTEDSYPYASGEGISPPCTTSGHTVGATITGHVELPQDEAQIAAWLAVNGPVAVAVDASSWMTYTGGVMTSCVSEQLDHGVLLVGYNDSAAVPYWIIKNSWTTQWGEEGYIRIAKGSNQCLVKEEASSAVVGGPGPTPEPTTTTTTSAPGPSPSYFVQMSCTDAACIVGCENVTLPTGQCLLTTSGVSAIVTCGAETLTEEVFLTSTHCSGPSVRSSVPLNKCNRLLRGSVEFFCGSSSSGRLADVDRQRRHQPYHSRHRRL
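Cruzain (1.5 nM) preincubated 15 min at RT with compound in 100 mM sodium acetate pH 5.5, 5 mM DTT, 0.01% Triton X-100. Reaction started with 2 uM Z-FR-AMC; AMC fluorescence (ex 360/em 450 nm) change over 60 s gave rate.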
RE007 growth inh: less growth of the S. pombe RE007 Vpr strain; S. pombe RE007 Vpr strain, BacTiter-Glo ATP luminescence, 24 h; control for the full effect not named in the record; Potency, µM (top dose mostly 92.2 µM), without a hit: at the top dose activity change, negative = less growth; 0.21% of 360,000 active; AID 651644; active = well fitted falling curve with a large enough effect; inconclusive = small, poorly fitted or top-dose-only effect; inactive = no such curve, though single readings can be large or run the other way;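 note: % is set by controls: 0 for no effect and ±100 for the full control effect; nearly all actives have a fitted effect of over 50% in size; the assay follows cell death caused by Vpr and the record does not say whether a fall means rescue or toxicity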
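Fission yeast strain RE007, carrying one chromosomally integrated HIV-1 vpr copy, was seeded at OD 0.01 in PMG+AL medium with 23 nL pinned compound. After 24 h at 30 °C and 99% humidity, viability was read by BacTiter-Glo luminescence.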
LASV entry inh: blocks Lassa virus binding to or entry into cells; 1.2% of 300,000 active; Potency, µM (highest dose often 37.9 µM), for the others: top-dose activity change, negative = inhibition, most hits filed as inhibitors; Lassa virus pseudotype entry inhibition, cell reporter; control for the full effect not named in the record; active means well fitted inhibition curve with a large enough effect; inconclusive means small, poorly fitted or top-dose-only effect, or effect the other way; inactive means flat fitted curve, though single readings scatter; tested in HEK293 cells; note: % is set by controls: 0 for no effect and ±100 for the full control effect; nearly all actives have a fitted effect of over 50% in size; luciferase read-out
SARS PLpro yeast: SARS-CoV PLP inhibition in yeast; S. cerevisiae expressing SARS-CoV PLpro, growth rescue; control for the full effect not named in the record; Potency, µM (highest dose often 32.9 µM), without a hit: at the top dose activity, positive = growth rescue; 0.19% of 330,000 active; active means well fitted rising curve with a large enough effect; inconclusive means small, poorly fitted or top-dose-only effect; inactive means no such curve, though single readings can be large or run the other way; note: 0% is about no effect; nearly all actives have a fitted effect of over 55% in size; growth read by luminescence after 48 h
2A StopGo: FMDV 2A StopGo reporter, luciferase signal; human cells with a luciferase reporter of 2A StopGo recoding; control for the full effect not named in the record; Potency, µM (series often up to 57.9 µM), for the others: at the top dose signal change, negative = less light; 1.2% of 410,000 active; AID 1159524; active = well fitted falling curve with a large enough effect; inconclusive = small, poorly fitted or top-dose-only effect; inactive = no such curve, though single readings can be large or run the other way; tested in HEK293T cells; note: % is set by controls: 0 for no effect and ±100 for the full control effect; nearly all actives have a fitted effect of over 45% in size; luciferase light after 4 h
Cruzain noTriton: inhibitors of Trypanosoma cruzi cruzain without detergent; 2.3% of 200,000 active; P25779; purified cruzain, Z-FR-AMC fluorescence, no detergent; Potency, µM, without a hit: max response, negative = inhibition, actives largely listed as inhibitors;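 note: plate controls were enzyme without inhibitor for no effect and buffer without enzyme for full effect; nearly all actives have a fitted effect of over 40% in size; top concentration of the series not given in the record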
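Detergent-free condition (0.00005% Triton X-100) in acetate buffer pH 5.5 with DTT. 1.5 nM enzyme and compound were pre-mixed 15 min, then 2 uM Z-FR-AMC substrate added; reaction progress from fluorescence change between first and third reads (60 s).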
NS1 function inh: inhibitors of influenza NS1 protein function. S. cerevisiae slowed by influenza A NS1, growth recovery by OD600. Potency, µM (doses to about 46.1 µM), inactives show at the top dose activity, positive = more growth. 0.4% of 270,000 active. AID 2326; active means well fitted rising curve with a large enough effect; inconclusive means small, poorly fitted or top-dose-only effect; inactive means no such curve, though single readings can be large or run the other way; note: nearly all actives have a fitted effect of over 50% in size
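Growth recovery, yeast-based: influenza A NS1 expressed in S. cerevisiae causes slow growth, and suppressors are detected by OD600. The parent strain without NS1 is used as positive control.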
MARV entry inh: blocks Marburg virus binding to or entry into cells | Marburg virus pseudotyped entry inhibition, cell reporter; control for the full effect not named in the record; about a third of the inactives were read at about 46 µM | Potency, µM (top dose mostly 37.8 µM), inactives show at the highest dose activity change, negative = inhibition, actives largely listed as inhibitors | 1.8% of 300,000 active | AID 540276; active = well fitted inhibition curve with a large enough effect; inconclusive = small, poorly fitted or top-dose-only effect, or effect the other way; inactive = flat fitted curve, though single readings scatter; tested in HEK293 cells; about a fifth of its hits are not listed in these tables; note: % is set by controls: 0 for no effect and ±100 for the full control effect; luciferase read-out
The depositor's hits bear a star; u = inconclusive; x = not tested or not shown; & = joins results of further samples; [ ] = another dose, or the depositor's remark. Unless noted, calls come from the whole dose curve; as a rule, active = well fitted curve in the direction sought with a large enough effect; inconclusive = small, poorly fitted or top-dose-only effect, or another doubt; inactive = no such curve, though single readings can be large; an effect the other way counts as inactive or inconclusive. Potency is the fitted concentration of half-maximal effect.

Every second line gives: Cruzain Triton	RE007 growth inh	LASV entry inh	SARS PLpro yeast	2A StopGo	Cruzain noTriton	NS1 function inh	MARV entry inh
- COc1cccc(C(=O)Nc2ccc3oc(-c4cccc5c(Br)cccc45)nc3c2)c1
  -1.5%	x	-9%[46.1 µM]	x	-21%	u	x	x
- CCN(CC)C(=O)Cn1cnc2sc(C(=O)Nc3cc(OC)c(OC)c(OC)c3)c(C)c2c1=O
  -0.1%	5%	1%	13%	x	u	-4%	-10%
- CC(=O)c1cn(CCCOc2ccccc2)c2ccccc12
  x	-8%	x	-2%	u	x	-41%	x
- CCOc1cccc(NC(=O)c2cccc(F)c2)c1
  x	u	x	0%	13%	x	-32%	x
- COC(=O)c1sc(NC(=O)c2ccc([N+](=O)[O-])o2)c(C#N)c1C
  x	-14%	x	1%	u	x	-50%	6%
- Cc1ccc(CNC(=O)c2cnn3c(C)c(Cc4c(F)cccc4Cl)c(C)nc23)cc1
  1.1%	x	-32%[46.1 µM]	x	u	10%	x	x
- Cc1cc2occ(CC(=O)N(CC(C)C)c3c(N)n(Cc4ccccc4)c(=O)[nH]c3=O)c2cc1C
  x	3%	1%	x	-13%	x	x	-30%[46.1 µM]
- CCc1nnc(NS(=O)(=O)c2ccc(NCc3cc(Cl)cc(Cl)c3O)cc2)s1
  x	8%	7%	4%	-12%	x	27%	1%
- CCOC(=O)CSc1nc2sc3c(c2c(=O)n1-c1ccc(OC)cc1)CC(C(C)C)OC3 (stereo not drawn)
  -1.2%	x	7%[46.1 µM]	x	-18%	5%	x	3%[46.1 µM]
- CC(C)C(=O)NC(=S)Nc1ccc(S(=O)(=O)NC2CCCCC2)cc1
  x	-11%	x	1%	62%[activator]	x	-1%	x
- COC(=O)c1cccc(Cn2nc(C)c([N+](=O)[O-])c2C)c1
  x	-13%	x	1%	-26%	x	x	u
- Cc1cccc(N(C)S(=O)(=O)c2ccc3[nH]c(=O)c(=O)[nH]c3c2)c1
  0.0%	-1%	u	-1%	-13%	4%	-3%	2%
- Cc1cc(C)cc(C(=O)Nc2nnc3n2CCS3)c1
  -0.4%	x	2%[46.1 µM]	x	3%	-7%	x	x
- COc1cccc(Oc2coc3cc(OC(=O)N4CCOCC4)ccc3c2=O)c1
  x	12%	-12%	-1%	-24%	x	0%	-16%[46.1 µM]
- COc1cc(NS(=O)(=O)c2ccc(NC(=O)C34CC5CC(CC(C5)C3)C4)cc2)ncn1
  -2.1%	2%	-4%	-2%	u	-3%	3%	-2%
- OCCN1CCN(C2Cc3cc(Cl)ccc3Sc3ccc(Cl)cc32)CC1 (stereo not drawn) (tested in a mixture with another compound)
  -9.8%	14%	u	-12%	-20%	5%	2%	u
- O=C(CSc1nc(-c2ccccc2)c(-c2ccccc2)o1)NCCCO
  x	10%	u	5%	-17%	x	-5%	u
- CCCN1CNC(=S)N(c2cc(C)ccc2C)C1
  -1.5%	-13%	6%	-14%	27%	2%	11%	u
- Nc1cc(Cl)cc(C(=O)O)c1Cl
  3.3%	1%	x	-2%	0%	-5%	x	x
- Cc1ccc(COC(=O)c2ccc(-c3nnn(Cc4ccc(C)cc4)n3)cc2)cc1
  1.1%	x	-7%[46.1 µM]	x	-21%	-7%	x	-15%[46.1 µM]

Retrieved by structure from the entries so far, three records:
Every second line gives: Cruzain Triton	RE007 growth inh	LASV entry inh	SARS PLpro yeast	2A StopGo	Cruzain noTriton	NS1 function inh	MARV entry inh
- COc1cc(NS(=O)(=O)c2ccc(NC(=O)C34CC5CC(CC(C5)C3)C4)cc2)ncn1
  -2.1%	2%	-4%	-2%	u	-3%	3%	-2%
- CCN(CC)C(=O)Cn1cnc2sc(C(=O)Nc3cc(OC)c(OC)c(OC)c3)c(C)c2c1=O
  -0.1%	5%	1%	13%	x	u	-4%	-10%
- Cc1cc2occ(CC(=O)N(CC(C)C)c3c(N)n(Cc4ccccc4)c(=O)[nH]c3=O)c2cc1C
  x	3%	1%	x	-13%	x	x	-30%[46.1 µM]

Other compounds
Every second line gives: Cruzain Triton	RE007 growth inh	LASV entry inh	SARS PLpro yeast	2A StopGo	Cruzain noTriton	NS1 function inh	MARV entry inh
- COc1ccccc1C(=O)Nc1cccc(C(=O)OCc2cc(=O)n3nc(C4CC4)sc3n2)c1
  1.3%	x	u	x	-11%	5%	x	x
- O=C(Nc1ccc(F)c(Cl)c1)C1CCN(S(=O)(=O)c2ccc3[nH]c(=O)ccc3c2)CC1
  -0.6%	x	u	x	-22%	9%	x	x
- CCCN(c1ccccc1C(=O)O)S(=O)(=O)c1ccc2c(c1)n(C)c(=O)n2C
  x	6%	x	-1%	4%	x	3%	x
- CC1CCCCC1NC(=S)NC(=O)c1ccccc1Br (stereo not drawn)
  -5.6%	3%	1%	u	-20%	-2%	19%	-34%
- CC(C)OP(=O)(c1ccccc1)c1ccccc1
  3.3%	8%	-10%	28%	-7%	2%	-3%	0%
- Cc1ccccc1NC(=O)C1CCN(S(=O)(=O)c2ccc3c(c2)NC(=O)C(C)S3)CC1 (stereo not drawn)
  x	-11%	-9%[46.1 µM]	0%	14%	x	14%	-5%[46.1 µM]
- COC(=O)C(=O)C1CCc2c(Cl)cc(OC)c(OC)c2C1=O (stereo not drawn)
  x	-20%	2%[46.1 µM]	x	-20%	x	x	-1%
- CCOc1ccc(C(=O)Nc2ccc(S(=O)(=O)N3C[C@@H]4C[C@@H](C3)c3cccc(=O)n3C4)cc2)cc1
  x	5%	x	-2%	0%	x	x	-5%
- Fc1cnc(N2CCc3ccccc32)nc1N1CCc2ccccc21
  7.0%	-15%	3%	10%	27%	3.2µM*	7%	u
- Brc1cccc(-c2nnn3c2nc(NC2CCCCC2)c2ccccc23)c1
  0.9%	x	4%[46.1 µM]	x	-2%	4%	x	-5%[46.1 µM]
- Cc1ccccc1C(=O)NCCCNC(=O)c1ccccn1
  x	-1%	-7%[46.1 µM]	7%	6%	x	8%	11%[46.1 µM]
- C=CCOc1ccccc1CN1CCC(n2nccc2NC(=O)C2CC2)CC1
  x	-22%	6%	-7%	-13%	x	10%	u
- CCOc1ccccc1N1CCN(CC(=O)Nc2ccccc2C(=O)NC2CC2)CC1
  x	24%	0%	-2%	u	x	x	-34%
- CC(C)OCCCNC(=O)CN1C(=O)COc2ccc(S(=O)(=O)N3CCCCCC3)cc21
  0.0%	2%	19%[46.1 µM]	-9%	-22%&1%	4%	7%	x
- COc1ccc(CCC(=O)NC2CC(=O)N(c3ccc(C)c(C)c3)C2)cc1 (stereo not drawn)
  1.6%	x	-4%[46.1 µM]	x	-12%	8%	x	x
- CC(C)CCSc1nc2c(c(=O)[nH]c(=O)n2C)n1CCc1ccccc1
  -2.4%	4%	u	u	-27%	4%	0%	0%
- CCCCCSc1nnc2c(n1)[nH]c1c(C)cccc12
  -1.0%	x	u	x	7%	u	x	8%[46.1 µM]
- C[C@]12C=CC(=O)C=C1CC[C@@H]1C2=CC[C@]2(C)[C@@H](C(=O)CN3CCN(c4cc(N5CCCC5)nc(N5CCCC5)n4)CC3)CC[C@@H]12
  x	-18%[18.4 µM]	-25%	x	-4%	x	x	5.6µM*
- CCOC(=O)c1sc(N(Cc2ccccc2)C(=O)COC(=O)c2ccccc2O)nc1C
  -6.6%	-14%	-24%	-4%	21%	-16%	-5%	u
- COc1ccc(OC)c(NC(=O)c2cnn(-c3ccc(C)cc3)c2C2CCNCC2)c1
  -7.9%	x	7%[46.1 µM]	x	-2%	-10%	x	x

Full records from above. Order of screens: Cruzain Triton | RE007 growth inh | LASV entry inh | SARS PLpro yeast | 2A StopGo | Cruzain noTriton | NS1 function inh | MARV entry inh
`O=C(Nc1ccc(F)c(Cl)c1)C1CCN(S(=O)(=O)c2ccc3[nH]c(=O)ccc3c2)CC1` reads -0.6% | x | u | x | -22% | 9% | x | x
`CCOc1ccccc1N1CCN(CC(=O)Nc2ccccc2C(=O)NC2CC2)CC1` reads x | 24% | 0% | -2% | u | x | x | -34%

Other records follow.
Every second line gives: Cruzain Triton	RE007 growth inh	LASV entry inh	SARS PLpro yeast	2A StopGo	Cruzain noTriton	NS1 function inh	MARV entry inh
- Oc1c(Cl)cc(Cl)cc1CNc1ccc(Br)cn1
  -2.9%	8%	u	-19%	14%	3%	2%	-56%&-56%
- CCOC(=O)N1CCN(C(=O)c2c[nH]c3ccc(S(=O)(=O)N(C)c4cccc(C)c4)cc3c2=O)CC1
  x	6%	x	5%	1%	x	-2%	x
- CCOC(=O)c1sc(=S)n(-c2cccc(C(F)(F)F)c2)c1SC
  -3.2%	18%	11%	-10%	0%	-12%	-9%	2%
- C/C(=N\N1CCN(C2c3ccccc3-c3ccccc32)CC1)c1ccco1
  -6.8%	2%	4%	0%	0%	-4%	5%	20%
- CCOc1ccc2nc(N/C(N)=N/C(=S)Nc3ccc(C)c(C)c3)nc(C)c2c1
  -11%	-14%	-1%	6%	-29%	u	6%	9%
- COc1ccc(CC2C(=O)NC(C)C(=O)N(C)C3Cc4ccc(cc4)Oc4cc(ccc4O)CC(C(=O)NC(C)C(=O)NC(C)C(=O)N2C)N(C)C3=O)cc1 (stereo not drawn)
  x	13%	u	x	0%	x	x	x
- CCOc1cccc(-c2nnc3sc(-c4ccc(C)cc4)nn23)c1
  -3.0%	x	x	-3%	x	u	3%	x
- COc1ccc(/C=N/NC(=O)c2ccc(CSc3nc(C)cc(C)n3)cc2)cc1O
  -9.1%	-3%	-3%	3%	u	23%	0%	-23%
- CC(C)N1C(=O)/C(=C/c2nc3ccccc3c(=O)n2-c2ccccc2)c2ccccc21
  -12%	-5%	10µM*	-40%	28µM*	u	-31%	u
- C=CCOc1ccc(CNC(C)(C)CO)cc1OCC
  2.8%	-3%	-3%	6%	5%	3%	-8%	18%

Compound activity from PubChem.
